Vaccinia mCherry – vaccinia inhibition (mCherry reporter); Potency, µM (titrated, usually from 36.5 µM), inactives show at the top dose activity change, negative = inhibition, usual class: inhibitors; 310,000 tested, 0.63% active; AID 720579; Vaccinia virus mCherry reporter infection, fluorescence; about a quarter of the inactives have no number; active = well fitted inhibition curve with a large enough effect; inconclusive = small, poorly fitted or top-dose-only effect; inactive = no such curve, though single readings can be large or run the other way; tested in A549 cells; also: nearly all actives have a fitted effect of over 35% in size; inactives centre near -10
VACV Venus inh – vaccinia inhibition (Venus reporter) | Vaccinia virus Venus reporter expression, fluorescence | Potency, µM (highest dose often 36.5 µM), inactives show at the highest dose activity change, negative = inhibition, most hits filed as inhibitors | 330,000 tested, 0.46% active | AID 720580; active means well fitted inhibition curve with a large enough effect; inconclusive means small, poorly fitted or top-dose-only effect; inactive means no such curve, though single readings can be large or run the other way; tested in A549 cells; also: nearly all actives have a fitted effect of over 30% in size; inactives centre near -10
Starred values were filed as active, the others as inactive; i = inactive; ? = inconclusive; / = no result given; & = joins results of further samples; [ ] = dose if it differs, or a comment. % is scaled to controls: 0 for no effect and ±100 for the full control effect; potency is read from the fitted curve at half-maximal effect. Compounds were not picked by outcome. Share with any hit: about 0.87%.

Under each structure – VACV Venus inh	Vaccinia mCherry
1	Cc1ccc2c(c1)C1CN(C)CCC1N2C(=O)COc1ccc(N(C)C(=O)c2ccccc2)cc1 (stereo not drawn)
 : -9%	-26%
2	C[C@H](CCC(=O)OCc1cn(CC(=O)c2ccc(O)cc2)nn1)C1CC[C@H]2[C@@H]3CC[C@@H]4C[C@H](O)CC[C@]4(C)[C@H]3C[C@H](O)[C@]12C (stereo partly drawn)
 : ?	i
3	Nc1nnnn1CC(=O)N/N=C/c1ccc(-c2cccc(Cl)c2)o1
 : -3%	0%
4	CC(C)NC(=O)C(C)n1cccc1C(=O)c1ccccc1 (stereo not drawn)
 : 0%	/
5	CCCN(CCC)Cc1c(C(=O)N/N=C/c2ccsc2)nnn1-c1nonc1N
 : -6%	-18%
6	C[C@@H](CSc1ccccc1)CN1CC[C@H](O)CCC1=O
 : -19%&-4%	i
7	COc1ccccc1CCNC(=O)C(=O)NCCC1CCCCN1S(=O)(=O)c1cccs1 (stereo not drawn)
 : -25%	?
8	CCOc1ccc(S(=O)(=O)N2CCC(C(=O)OC(C)C(=O)NC3CCCCC3C)CC2)cc1 (stereo not drawn)
 : -11%	i
9	COCCCNC(=O)Cn1c(=O)n(Cc2ccc(F)cc2)c(=O)c2sccc21
 : -7%	-11%
10	Cc1ccccc1-c1nc(CS(=O)(=O)CC(=O)NCCCN2CCCC2)c(C)o1
 : -5%	-24%
11	Cn1c(=O)c2c(nc(SCC(=O)O)n2Cc2cccc(C(F)(F)F)c2)n(C)c1=O
 : 7%	/
12	O=S(=O)(Nc1cccc2cn[nH]c12)c1ccc(F)cc1
 : -6%	/
13	Cn1cnnc1SCC(=O)N1CCC(Cc2ccccc2)CC1
 : -15%	/
14	CCCCCCCCCCCCCCCCCCOC[C@H](COP(=O)([O-])OCC[N+](C)(C)C)OC
 : -8%[3.33 µM]	i[3.33 µM]
15	O=C(CSc1nnc2n1CCCCC2)NCc1ccccc1
 : -3%	-3%
16	Cc1c(NS(=O)(=O)c2cc(C(=O)NC(C)c3ccccc3)ccc2Cl)c(=O)n(-c2ccccc2)n1C (stereo not drawn)
 : -23%	-10%
17	Cc1cccc(S(=O)(=O)N2CCN(Cc3ccc4c(c3)OCO4)CC2)c1
 : 0%	i
18	Cc1cccc(OCC(=O)N/N=C\c2cc3c(cc2[N+](=O)[O-])OCO3)c1C
 : -12%	-22%
19	CCOc1ccc(C(C(=O)NCCC(C)C)N(CCO)C(=O)c2snc(C(N)=O)c2N)cc1 (stereo not drawn)
 : -14%	-1%
20	CN(c1ccccc1)S(=O)(=O)c1cccc(NS(=O)(=O)c2ccc(/C=C/C(=O)O)cc2)c1
 : -11%	i
21	COc1cccc(C2CC(=O)Nc3c2c(=O)nc2c(C)cccn32)c1OC (stereo not drawn)
 : 4%	-2%
22	COc1ccc(CNC(=O)Cn2cncn2)cc1OC
 : -24%	-17%
23	O=[N+]([O-])c1cccc(-n2cc3ccc([N+](=O)[O-])cc3n2)c1
 : -2%	-16%
24	O=C(O)c1cc([N+](=O)[O-])ccc1NCc1ccccc1Cl
 : -6%	i
25	CC(C)c1ccc(C(c2c(O)c3ccccc3oc2=O)c2c(O)c3ccccc3oc2=O)cc1
 : -26%	-29%
26	COc1ccc(C2C(C(=O)NC(C)C)c3ccccc3C(=O)N2C)cc1OC (stereo not drawn)
 : -9%	-7%
27	CCOC(=O)c1[nH]c(C)c(C(=O)N2CCN(c3ccc(OC)cc3)CC2)c1C
 : -16%	-3%
28	CSCC[C@H](NC(=O)[C@@H]1Cc2ccccc2CN1)C(=O)NC1CCCCC1
 : -19%	-5%
29	CCOC(=O)N1CCN(S(=O)(=O)c2cc(Br)cc3c2N(C(=O)CC)CC3)CC1
 : -15%	-5%
30	COc1ccc(CCNC(=O)c2cc(C(C)C)on2)cc1OC
 : -4%	-11%
31	CC(=O)c1c(C)[nH]c(C(=O)COC(=O)CN(C)S(=O)(=O)c2ccc(Cl)cc2)c1C
 : -7%	/
32	CC1CC2CC(=O)CCC2(C)C2CCC3(C)C(O)CCC3C12 (stereo not drawn)
 : -13%	-22%
33	Cc1ccc(-c2cc(C(=O)Nc3ccc(S(=O)(=O)Nc4ncccn4)cc3)[nH]n2)c(O)c1C
 : -7%	-16%
34	Cc1ccc(/C=N/NC(=O)c2cccc([N+](=O)[O-])c2)o1
 : 3%	i
35	COc1cccc(CNC(=O)c2sc3ncccc3c2-n2c(C)ccc2C)c1OC
 : -27%	-10%
36	CC1=C(C(=O)N2CCCCCC2)CC(CC(=O)NCCCN(C)C)C(=O)N1Cc1ccccc1 (stereo not drawn)
 : -1%	i
37	Cc1ccccc1NC(=O)COC(=O)c1cc[n+]([O-])cc1
 : 4%	-5%
38	CN1CCN(CCCNC(=O)c2cc3c(=O)oc4ccccc4c3s2)CC1
 : -1%	/
39	CCCC1(c2ccccc2)NC(=O)N(C/C=C/Cl)C1=O (stereo not drawn)
 : -3%	-4%
40	COc1ccc(NC(=O)NCc2ccncc2)cc1
 : ?	i
41	CC(=O)Nc1ccc(-c2csc(NC(=O)C3=COCCO3)n2)cc1
 : -8%	i
42	CCC(C(=O)NCc1ccc(F)cc1)n1nc(C)n2c(cc3occc32)c1=O (stereo not drawn)
 : -22%	-6%
43	COC(=O)N/N=C/c1cccc(OC(=O)c2ccc3c(c2)OCO3)c1
 : -11%	i
44	CCN(Cc1cc(=O)n2ccsc2n1)Cc1nc2cc(OC)c(OC)cc2c(=O)[nH]1
 : -9%	-11%
45	CN(NC1OC(=O)c2ccccc21)c1ccc(C(F)(F)F)cc1[N+](=O)[O-] (stereo not drawn)
 : -8%	i
46	Cn1c(=O)c2cn3c(c2n(C)c1=O)C(c1ccccc1)CC(c1ccccc1)=N3 (stereo not drawn)
 : -27%	/
47	O=[N+]([O-])c1ccc(N2CCN(C(=S)NC3CCCCC3)CC2)cc1
 : ?	/
48	COC(=O)CC1Oc2ccccc2-n2cc(-c3ccc(Cl)cc3)nc21 (stereo not drawn)
 : -9%	-18%
49	O=C(CCNS(=O)(=O)c1cccc2nsnc12)N1CCc2ccccc21
 : ?	/
50	CC1CC(=O)N(C)c2ccc([N+](=O)[O-])cc2N1 (stereo not drawn)
 : 1%	-12%

Next section
Under each structure – VACV Venus inh	Vaccinia mCherry
51	COc1ccc(Sc2ccccc2CN(C)C)cc1OC
 : -12%	/
52	Clc1ccc(-c2nnc(-c3cccnc3)o2)cc1
 : -11%	0%
53	COc1cccc(C2/C(=C(\O)c3ccc4c(c3)OCCO4)C(=O)C(=O)N2CCN(C)C)c1 (stereo not drawn)
 : -3%	1%
54	Cc1cc(=O)oc(C)c1C(=O)NC12CC3CC(CC(C3)C1)C2
 : -14%	/
55	CC(C)N1CCCC(C)(C(=O)Nc2nc3ccccc3[nH]2)C1 (stereo not drawn)
 : 2%	-1%
56	CC(=O)c1c(CSc2ccccc2)oc2ccc(O)c(CN(C)C)c12
 : -15%	-22%
57	O=S(=O)(NCC(c1ccc2c(c1)OCO2)N1CCOCC1)c1ccc(Cl)cc1 (stereo not drawn)
 : 0%	11%
58	CCCCC[C@H](O)/C=C/[C@H]1C=CC(=O)[C@@H]1CCCCCCC(=O)O
 : -13%[3.33 µM]	-3%[3.33 µM]
59	Cc1ccc(-n2ncc(C(=O)NCc3ccco3)c2C2CCN(C(=O)OC(C)(C)C)CC2)c(C)c1
 : -15%	-15%
60	CC(C)CC(=O)Nc1ccc(C(=O)Cn2nc(C(=O)O)c3ccccc3c2=O)cc1
 : -16%	/
61	CC(C)(C)n1ncc2c(=O)n(CC(=O)Nc3ccc4c(c3)OCO4)cnc21
 : -12%	-11%[1.46 µM]
62	O=C1NC(=O)C2(CCCc3c([N+](=O)[O-])cccc32)N1 (stereo not drawn)
 : -4%	i
63	COc1cc(S(=O)(=O)NCc2ccc3c(c2)OCO3)ccc1Cl
 : -6%	-5%
64	CC(=O)c1ccc(NC(=O)Cn2c(=O)oc3cc(S(=O)(=O)N4CCCCC4)ccc32)cc1
 : -20%	-21%
65	Cc1cccc(C)c1NC(=O)NC1(C(=O)N2CCN3CCCC3C2)CCCCC1 (stereo not drawn)
 : 2%	-3%
66	CCNC(=O)c1c(C)nc2ccccn12
 : -4%	/
67	COc1ccc(-c2cc(C)no2)cc1S(=O)(=O)N1CCOc2ccc(Cl)cc21
 : 1%	-10%
68	Cn1c(N)c(C(=O)COC(=O)CSc2ccccc2)c(=O)n(C)c1=O
 : -12%	-3%
69	C/C=C(/C)C(=O)O[C@@H]1Cc2c(ccc3ccc(=O)oc23)OC1(C)C
 : -17%	-9%
70	Cc1noc(C)c1COc1ccc(C(=O)OC(C)C(=O)Nc2ccc(N3CCOCC3)cc2)cc1 (stereo not drawn)
 : -1%	-10%

Among those listed so far, these contain a nitro group on carbon.
Under each structure – VACV Venus inh	Vaccinia mCherry
18	Cc1cccc(OCC(=O)N/N=C\c2cc3c(cc2[N+](=O)[O-])OCO3)c1C
 : -12%	-22%
23	O=[N+]([O-])c1cccc(-n2cc3ccc([N+](=O)[O-])cc3n2)c1
 : -2%	-16%
24	O=C(O)c1cc([N+](=O)[O-])ccc1NCc1ccccc1Cl
 : -6%	i
34	Cc1ccc(/C=N/NC(=O)c2cccc([N+](=O)[O-])c2)o1
 : 3%	i
45	CN(NC1OC(=O)c2ccccc21)c1ccc(C(F)(F)F)cc1[N+](=O)[O-] (stereo not drawn)
 : -8%	i
47	O=[N+]([O-])c1ccc(N2CCN(C(=S)NC3CCCCC3)CC2)cc1
 : ?	/
50	CC1CC(=O)N(C)c2ccc([N+](=O)[O-])cc2N1 (stereo not drawn)
 : 1%	-12%
62	O=C1NC(=O)C2(CCCc3c([N+](=O)[O-])cccc32)N1 (stereo not drawn)
 : -4%	i

The listing continues.
Under each structure – VACV Venus inh	Vaccinia mCherry
71	Cc1ccc(-n2ncc(C#N)c2/N=C/N2CCCCCC2)cc1
 : -8%	-15%
72	COc1cc(O)c(C(CCN2CCCC(C)C2)c2ccc(N(C)C)cc2)c(OC)c1 (stereo not drawn)
 : -19%	-13%
73	CC12CN3CN(C1)CC(C)(C3)C2=NO
 : 5%	i
74	N#Cc1ccccc1NC(=O)c1ccccc1OCC(=O)NCc1ccco1
 : -3%	-5%
75	O=C(OC1CCOC1=O)c1cccc(S(=O)(=O)N2CCc3ccccc3C2)c1 (stereo not drawn)
 : -2%	-2%
76	CC12CCC(C(S(=O)(=O)Nc3ccccc3)C1=O)C2(C)C (stereo not drawn)
 : -6%	i
77	Nc1nonc1-n1nnc(C(=O)N/N=C/c2ccccc2)c1CN1CCc2ccccc21
 : 6%	?
78	COc1ccc(CN(C)C(=O)Cn2ccc(NC(=O)OCc3ccccc3)nc2=O)cc1OC
 : -12%	i
79	CCOc1ccc(CCNC(=O)c2cccc(NC3=NC4CS(=O)(=O)CC4S3)c2)cc1 (stereo not drawn)
 : -17%	i
80	COc1cc(-c2nc(-c3cccc(C(F)(F)F)c3)no2)cc(OC)c1OC
 : -12%	-12%
81	CCCCCCN1C[C@@H](O)[C@H](n2cc(COC(=O)c3ccccc3)nn2)C[C@@H]1c1ccc(C)cc1
 : -24%	-18%
82	COc1ccc(NS(=O)(=O)c2ccc(C)c(C(=O)N(C)CC(=O)Nc3cccc(OC)c3)c2)cc1
 : -13%	-18%
83	O=C(CN1C(=O)C2CC=CCC2C1=O)Nc1nnc(SCc2ccc(F)cc2)s1 (stereo not drawn)
 : -5%	i
84	COc1ccc(/C=C2/C(=O)N(Cc3ccccc3)N=C2C)cc1
 : -2%	-11%
85	COc1ccc(Cl)c2sc(N(CCN(C)C)C(=O)c3ccc4c(c3)OCCO4)nc12
 : -9%	?
86	CN(CC(=O)NCCc1ccc(S(N)(=O)=O)cc1)CC(=O)Nc1ccc(F)c(F)c1F
 : -3%	i
87	CCN1CCC(N(Cc2ccc3c(c2)OCO3)C(=O)Nc2cccc(C)c2C)CC1
 : 0%	-11%
88	c1ccc2c(c1)ccc1nnc(SCc3ccc4c(c3)OCO4)n12
 : -16%	i
89	O=C(Nc1ccc(Cl)cc1)N1CC1
 : -20%	-12%
90	CC(=O)c1cnc2nc(SCc3ccc(C)cc3)nn2c1C
 : -21%	-6%
91	CNC(=O)C(NC(=O)c1ccccc1)=C(C)C
 : -9%	i
92	CCCN1C(=O)/C(=C/c2ccc(OCC(=O)OCC)cc2)NC1=S
 : -13%	-24%
93	O=[N+]([O-])c1ccc(Oc2ncccn2)cc1
 : -8%[7.34 µM]	-1%[7.34 µM]
94	COCCN(CCOC)c1nc(N)c2c(N)nc3c(c2c1C#N)CC(=O)N3Cc1ccc(Cl)cc1
 : -8%	-18%
95	N#Cc1cc(C(=O)c2cc(Br)ccc2O)cn(Cc2ccccc2)c1=O
 : 5%	i
96	Cc1ccc2oc(NC(=O)N3CCOCC3)cc(=O)c2c1
 : -15%	i
97	CCCSc1nc(N)nc(-c2cccs2)c1C#N
 : ?	/
98	CN1C(=O)NC(=O)C(C)(C2=CCCCC2)C1=O (stereo not drawn)
 : -10%	i
99	COc1ccc(CN(C)C(=O)C(Cc2ccccc2)NC(=O)c2ccccc2)c(OC)c1OC (stereo not drawn)
 : -26%	-3%
100	CCN(CC)CCCNc1cc2n(c(=O)n1)CCc1cc(OC)c(OC)cc1-2
 : -12%	/
101	CC(=O)c1ccc(NC(=O)CC2Nc3cc(C)c(C)cc3NC2=O)cc1 (stereo not drawn)
 : 2%	-12%
102	O=C(Nc1c(C(=O)O)[nH]c2ccccc12)c1cccc(C(F)(F)F)c1
 : -4%	-8%
103	C/C(CC(=O)NCc1ccc(Cl)cc1)=N\NC(=O)COc1ccc(C)cc1Br
 : -24%	-19%
104	COc1cccc(C(=O)O/N=C(\N)c2ccncc2)c1OC
 : -11%	-3%
